Screens: PubChem BioAssay, several laboratories
Beta cell apopt = beta cell apoptosis inhibition; protection from apoptosis, % (concentration not given with the values); AID 435005; INS-1E cytokine-induced death, ATP luminescence, 48 h; percent of positive-control rescue, neutral wells zero; 300,000 tested, 0.8% active;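 active = all replicates at 75% or more, or half of them and the mean; inconclusive = half reach 75% but not the mean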;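 also: 0% = cytokine-treated negative control wells and 100% = positive control rescue; higher means more ATP so stronger rescue from cytokine killing; wells of about 40 µL received 100 nL stock; the first replicate is given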
rRNA inh HTS = inhibits bacterial ribosomal RNA function over humanized ribosomes | E. coli WT GFP vs humanized-ribosome RFP mutants, fluorescence, 24 h; stronger effect = lower value; DMSO median 0, no signal -100 | GFP signal change (wild-type ribosome), % (no concentration beside the values) | 350,000 tested, 1.6% active | AID 720706;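 active = significant combined selectivity score with lowered wild-type GFP, culture density cut under 30%, mutant RFP and density less affected; inactive = any of these conditions unmet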; also: one replicate is shown; some compounds called inactive have numbers as strong as hits
ALR H2O2 inh = inhibitors of human sulfhydryl oxidase ALR; inhibition, % (test concentration not listed); P55789; AID 485317; 290,000 tested, 3.8% active; purified ALR, DTT oxidation, H2O2 HRP-luminol luminescence;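 active = mean and each replicate at 75% or more; inconclusive = only one of the two met; inactive = neither met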;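 also: stock transfer was 7.5 nL into about 7.5 µL; 0% = neutral wells and 100% = wells with inactivated enzyme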
Target sequence (P55789 whole entry, looked up): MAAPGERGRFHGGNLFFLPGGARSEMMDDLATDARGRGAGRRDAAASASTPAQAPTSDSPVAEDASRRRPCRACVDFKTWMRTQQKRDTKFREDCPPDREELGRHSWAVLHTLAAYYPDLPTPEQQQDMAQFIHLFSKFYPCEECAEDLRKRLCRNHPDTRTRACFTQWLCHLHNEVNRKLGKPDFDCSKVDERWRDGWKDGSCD
Beta2AR agonist = activates human beta-2 adrenergic receptor causing internalization. P07550. Am2.2-beta2AR cells, FAP receptor internalization, flow cytometry; reference of the scale not given here. 340,000 tested, 0.43% active. response, % (no concentration beside the values);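 active = response above a set limit, near 3 SD of response in nonfluorescent compounds, cut at about 42% in these data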;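 also: stock transfer was 100 nL into about 11 µL; a reference agonist was the positive control; negative values mostly stem from fluorescent compounds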
Target sequence (P07550 whole entry, looked up): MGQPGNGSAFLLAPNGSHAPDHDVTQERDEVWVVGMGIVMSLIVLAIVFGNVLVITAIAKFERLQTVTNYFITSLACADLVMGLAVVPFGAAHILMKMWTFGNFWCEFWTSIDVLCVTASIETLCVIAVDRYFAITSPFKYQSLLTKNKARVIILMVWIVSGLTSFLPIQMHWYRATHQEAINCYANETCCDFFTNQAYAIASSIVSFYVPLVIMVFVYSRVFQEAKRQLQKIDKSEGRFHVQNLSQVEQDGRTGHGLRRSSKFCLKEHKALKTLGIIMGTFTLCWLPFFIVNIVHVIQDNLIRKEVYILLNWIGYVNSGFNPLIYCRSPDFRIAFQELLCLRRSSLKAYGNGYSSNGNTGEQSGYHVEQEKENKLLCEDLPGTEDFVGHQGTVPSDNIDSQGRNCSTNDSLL
A1 inh = inhibitors of the anti-apoptotic protein A1, read as caspase activation; AID 2462; 330,000 tested, 0.066% active; MEF A1-2A-BIM cells, Caspase-Glo 3/7 luminescence, 3 h; percent of clofoctol response, vehicle zero; caspase activation, % (no concentration beside the values);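 active = over half of replicate activation scores above 10%, or exactly half above 10 with the replicate mean above 10; inconclusive = replicate mean below 10 yet half the replicates above 10; inactive = over half of replicates below 10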;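 also: wells of about 30 µL received 50 nL stock; many hits fall short of the cut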
T cruzi inh = blocks replication of Trypanosoma cruzi | inhibition, % (test concentration not listed) | 300,000 tested, 1.4% active | T. cruzi beta-gal in NIH3T3, luminescence, 90 h;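 active = mean inhibition across valid replicates above about 55%, limit read from the data; inconclusive = mean below that limit but half or more replicates reach it; inactive = mean below it, under half of replicates reach it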;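 also: signal also drops with host cell toxicity which is not excluded here; 0% = plate median of DMSO wells and 100% = zero luminescence signal; higher percent means less beta-gal luminescence so fewer parasites; stock transfer was 50 nL into about 50 µL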
Calb FLC = C. albicans growth modulation with fluconazole | AID 1979 | C. albicans CaCi-2 (fluconazole-resistant clinical isolate) + fluconazole, Alamar Blue growth, 48 h | 300,000 tested, 0.57% active | growth inhibition, % (test concentration not listed);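 active = most replicates above 75%; inconclusive = exactly half above 75%; inactive = most below 75%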;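 also: all wells also contain fluconazole at 8 µg/ml as a sub-toxic cotreatment; 0% = median of DMSO wells and 100% = median of geldanamycin control wells; wells of about 8 µL received 7.5 nL stock; the first replicate is given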
LANA-H2A inh = blocks KSHV LANA binding to histone H2A/H2B | Q9QR71 | cell-free LANA-H2A/H2B peptide, fluorescence polarization | inhibition, % (no concentration beside the values) | 320,000 tested, 0.6% active | AID 2629; in the data active = inhibition mostly above about 10%, no sharp cut-off; inactive = mostly below about 6.7%;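 also: stock transfer was 7.5 nL into about 10 µL; 0% = median of vehicle wells and 100% = median of positive control wells; one replicate is shown; the record names a cut of 25% in any replicate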
rRNA inh HTS OD600 = further read-out of rRNA inh HTS, marked with its call; OD600 change, %; measured here: OD600 growth;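 optical density of the mix in the first replicate; 0 = DMSO median and -100 = no signal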
rRNA inh HTS RFP = second read-out of rRNA inh HTS, no call of its own (marks repeat the call); RFP signal change, %; measured here: RFP humanized mutant strains;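 first replicate; 0 = DMSO median and -100 = no signal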
* marks the source's active call; other numbers are inactive results; u = inconclusive; x = no result given.

SMILES	Beta cell apopt	rRNA inh HTS	rRNA inh HTS OD600	rRNA inh HTS RFP	ALR H2O2 inh	Beta2AR agonist	A1 inh	T cruzi inh	Calb FLC	LANA-H2A inh
O=C(Nc1ccc(Cl)cc1)N1CC=CCC1	9	x	x	x	2	0	-2.6	-16	-38	-0.3
CC1=CC(C)(C)N2C(=O)C3(C(C#N)=C(N)Oc4cc(C)oc(=O)c43)c3cc(C)cc1c32 (stereo not drawn)	-1	x	x	x	-8	3	0.6	55*	-12	2.2
Cn1sc(=O)c2cc(S(=O)(=O)NC3CC3)ccc21	5	-2	-2	-1.1	-16	9	0.1	-9	7	2.3
COc1cccc(CNC(=O)CSc2nc(=O)n(Cc3ccncc3)c3c2CCC3)c1	x	9	5	-1.6	-3	-3	-0.6	-7	6	2.3
CC1(C)CC(NC(=O)c2sc3cc(Cl)ccc3c2Cl)CC(C)(C)N1	15	1	4	2.4	-13	6	0.3	29	18	0.0
Cc1nn(-c2ccccc2)c(Cl)c1/C=N/Nc1nnc(C)c(=O)[nH]1	0	-4	-3	-4.1	4	-13	-1.9	-7	21	-6.7
COc1ccc(CC(=O)OCC(=O)Nc2ccc(Cl)c(S(=O)(=O)N(C)C)c2)cc1	0	-22	-20	5.3	-4	-4	0.1	-20	-27	0.7
Cn1c(=O)n(C)c2cc3[nH]cnc3cc21	-5	15	11	0.3	-5	-7	0.3	-5	5	3.9
COC(=O)c1ccc(C(=S)N2CCCCC2)cc1	-4	4	-4	-8.1	-3	1	0.8	-3	-6	3.1
COc1ccc(CCNC(=O)COc2cc(O)c3c(c2)OC(C)(C)CC3=O)cc1	0	x	x	x	x	-1	-0.1	-18	-1	5.0
Cc1nc2c(Cl)c(C)nn2c2c1CCC2	-4	9	2	0.9	-3	-3	0.7	-5	1	-2.6
C=CCNC(=O)c1ccccc1NC(=O)c1ccccc1SC	-2	-8	-12	-2.9	-2	-1	-0.4	-12	8	2.1
COCCN1CC(C(=O)N2CCC(Oc3ccccc3OC)CC2)CCC1=O (stereo not drawn)	x	7	10	-2.0	3	-2	1.4	-1	4	1.1
CC(=O)Nc1ccc(C(=O)OCC(=O)c2ccc(F)cc2)cc1	-3	14	3	-4.0	2	-9	-1.0	1	8	1.6
O=C(CCCC(=O)Nc1cccc(Br)c1)N/N=C/c1cc([N+](=O)[O-])ccc1O	13	-3	13	6.0	1	7	0.0	1	7	1.9
Cc1cc(NC(=O)CCC(=O)N(Cc2ccco2)C(C(=O)NC2CCCC2)c2ccccc2F)no1 (stereo not drawn)	-9	x	x	x	x	0	0.1	13	6	2.1
Cc1nc2c(-c3ccccc3)c(C)nn2c(N)c1-c1ccccc1	4	x	x	x	0	2	0.3	36	-2	1.4
N#Cc1ccccc1CSc1nc(N)cc(N)n1	-4	7	2	5.5	x	-1	0.4	-13	21	3.3
Cc1ccc(N(c2ncnc(N)c2[N+](=O)[O-])C2CCCCC2)cc1	-6	x	x	x	-1	1	0.9	14	14	-0.7
CC(C)C(=O)NCc1cc(-c2ccc(Cl)cc2)no1	2	3	8	-0.9	x	-3	0.0	0	-12	3.3
CCOC(=O)c1cnc2ccc(OC)cc2c1NCCc1ccc(OC)c(OC)c1	3	x	x	x	x	-12	0.2	6	12	x
COc1ccc(C)cc1S(=O)(=O)N1CCN(C(=O)c2ncoc2-c2ccccc2F)CC1	-2	-1	2	2.8	-16	-3	-0.1	15	0	3.1
COc1ccccc1CNC(=O)COC(=O)CCN=C1NS(=O)(=O)c2ccccc21	-4	9	10	0.9	-1	-4	-0.7	1	-5	-4.5
O=C(c1n[nH]c2c1CCCC2)n1ccnc1	3	x	x	x	2	x	0.7	-18	13	-5.2
O=C(NCc1ccc2c(c1)OCO2)c1ccc(C2SCC(=O)N2Cc2ccco2)cc1 (stereo not drawn)	1	x	x	x	-8	6	-0.5	0	-22	5.1
COc1ccc(CCNCc2csc3nc4ccccc4n23)cc1OC	26	x	x	x	-3	4	1.8	-23	25	-3.1
COC(=O)c1ccc(NC(=O)CSc2nc(=O)cc(N)n2-c2ccccc2)cc1	-7	2	7	1.1	99*	-6	0.0	-4	5	0.6
COc1cccc(C2=CC(=O)CC(c3ccco3)C2)c1 (stereo not drawn)	-2	-1	11	1.2	-4	-8	0.6	-23	-3	-3.0
Cc1c(NC(=O)c2ccc(N(Cc3ccccc3)S(C)(=O)=O)cc2)c(=O)n(-c2ccccc2)n1C	0	14	8	-0.8	4	-4	1.4	9	0	0.0
C/C(=N/Nc1ccccc1[N+](=O)[O-])c1ccc([N+](=O)[O-])cc1	1	3	9	0.7	-3	10	-0.4	1	3	-7.7
Cc1ccc(NS(=O)(=O)c2cccc(C(=O)N/N=C/c3ccc4c(c3)OCCO4)c2)c(C)c1	-6	x	x	x	x	8	0.7	-6	-5	-4.0
O=C(CN1C(=O)COc2ccccc21)N1CCc2ccccc21	-2	x	x	x	-8	8	1.2	-24	-5	2.0
COc1ccc(N(C(=O)c2snc(C(N)=O)c2N)C(C(=O)NCc2ccccc2)c2ccc(O)cc2)cc1OC (stereo not drawn)	x	-24	-24	3.1	x	-17	x	2	10	x
COc1ccc(-c2nn(-c3ccccc3)cc2/C=N/N=C(N)N)cc1OC	-3	x	x	x	14	9	-0.2	12	37	0.2
Fc1ccccc1COc1ccc(Br)cc1CNCc1ccncc1	-4	x	x	x	-7	26	0.2	50	2	-3.8
COC(=O)c1ccccc1NC(=O)CSc1nnc(-c2ccncc2)o1	5	x	x	x	-14	-3	0.1	-1	-17	-3.1
C=CCOC(=O)C1=C[C@@H](c2cn(C(C)=O)c3ccccc23)C[C@@H](OCCCCO)O1	-5	-14	-18	15	-11	12	1.7	3	0	1.1
N#CCCn1cc(C(N)=O)c(-c2cccs2)n1	-2	x	x	x	x	-1	-0.5	9	-2	-2.5
O=C(c1ccc(NC2=NC3CS(=O)(=O)CC3S2)cc1)N1CCN(c2ccc(F)cc2)CC1 (stereo not drawn)	1	0	4	-4.2	x	-7	-2.4	0	-2	6.8
O=C1C2CC(O)CN2C(=S)N1Cc1ccccc1 (stereo not drawn)	-10	-6	5	-3.5	0	10	0.3	16	-10	-1.6
Cc1ccc(C(=O)NCc2ccccn2)c(Cl)c1	-1	x	x	x	-30	-6	-0.5	-7	5	-1.0
S=C(NCCc1ccccn1)Nc1ccccc1Cl	-4	9	9	0.1	94*	6	-0.4	-4	-17	-3.0
CC(=O)Nc1nc(=S)ss1	4	x	x	x	-8	2	0.6	-13	-5	1.0
O=C(COc1ccc(Br)cc1)Nc1ccncc1	-11	x	x	x	3	1	-0.7	-6	-7	-1.6
C/C(=N\Nc1nccnc1Cl)c1ccc(Cl)c(Cl)c1	5	13	13	2.1	x	-5	-1.7	6	7	3.1
NC(=O)c1nsc(C(=O)N(c2cccc(F)c2)C(C(=O)NCC2CCCO2)c2c[nH]c3ccccc23)c1N (stereo not drawn)	7	8	12	2.1	x	-5	0.2	23	14	-4.5
COc1cc(/C=C(/C#N)c2ccccc2)ccc1Oc1ccc([N+](=O)[O-])cn1	16	x	x	x	-7	8	0.3	48	u	1.0
C/C(=N\NC(=O)COc1ccc(C)cc1[N+](=O)[O-])c1cccs1	-1	6	-2	1.4	1	-18	0.7	1	-4	2.9
CC(C)Oc1ccc(CC2CCC(=O)N(C)C2=O)cc1 (stereo not drawn)	-6	-8	-4	-0.5	x	10	0.0	-9	18	x
CC(=C/c1ccco1)/C=N/NC(=O)CSc1nnc(SCc2ccc(C)cc2)s1	-3	-21	3	22	-7	-1	-1.5	-17	17	3.5
O=C(NCCCO)C12CC3CC(CC(C3)C1)C2	-12	x	x	x	-4	-2	0.7	-4	-6	-4.3
CCCOc1ccc(-c2c(C(=O)N/N=C(\C)c3cccs3)nnn2-c2nonc2N)cc1	9	-1	10	1.2	-1	-6	-0.1	-9	x	0.5
CC1CCN(CC(=O)Nc2ccccc2C#N)CC1	x	x	x	x	-2	-3	1.3	-10	44	-0.9
CCc1nc2ccccc2c(=O)n1NC(=O)c1c(O)c2ccccc2n(CC)c1=O	1	-30*	0.8*	2.6*	2	1	-0.7	-5	18	6.8
C=CCNC(=S)N1CCN(C2CCCCC2)CC1	1	10	3	-2.9	-2	-4	1.2	7	-4	-4.9
COc1ccc(Br)c(C(=O)NNC(=O)c2ccc(NS(=O)(=O)c3cccs3)cc2)c1	1	-13	-10	5.4	2	-5	0.3	-3	-2	-0.2
CCNC(=O)COC(=O)CCC(=O)c1cccs1	-7	-14	2	-1.4	-5	2	1.3	1	3	-0.6
COC(=O)c1ccc(-c2noc(CN3CCCC(CNC(C)=O)C3)n2)cc1 (stereo not drawn)	-1	3	3	-0.9	-15	-1	0.5	-9	-1	-1.6
CS(=O)(=O)c1nc(S(=O)(=O)c2ccc(Cl)cc2)c(N2CCOCC2)s1	-16	17	21	2.7	1	-8	0.4	1	-5	1.4
CCN(CC(=O)N1CCCCCC1)S(=O)(=O)c1ccc(C)cc1	x	4	-3	0.0	x	2	0.2	-7	-21	-0.8

Later entries
SMILES	Beta cell apopt	rRNA inh HTS	rRNA inh HTS OD600	rRNA inh HTS RFP	ALR H2O2 inh	Beta2AR agonist	A1 inh	T cruzi inh	Calb FLC	LANA-H2A inh
CCOC(=O)C(=O)Nc1ncc(Cl)s1	-5	11	6	1.3	-2	7	-0.3	14	-3	-0.3
CCCCCCCN(C(=O)CCl)c1ccccc1C	4	x	x	x	2	0	0.4	2	-12	1.5
Cc1ccnc(NCn2nnc3ccccc32)c1	x	x	x	x	2	4	0.3	-4	2	4.1
O=C(N/N=C/c1ccc([N+](=O)[O-])o1)C(=O)Nc1ccc(C(=O)O)cc1	-11	4	2	1.3	-29	5	-0.6	8	-11	-3.7
CCN1CCN(CC(=O)Nc2ccc(N(C)C)cc2)CC1	-4	9	15	14	39	9	-0.7	-7	-4	-1.9
COc1ccccc1[C@]1(C)ON(c2ccccc2C(F)(F)F)C1=O	-12	10	7	-7.0	-6	35	0.6	x	x	-6.4
O=C(Cc1ccc(S(=O)(=O)N2CCOCC2)s1)OCc1ccc(Cl)cc1	-3	-18	-14	2.9	x	-2	0.1	x	x	0.9
CCn1ncc(Br)c1C(=O)Nc1ccccc1C(=O)OC	0	x	x	x	-4	6	0.3	-2	-31	-3.1
CCN(CC)C(=O)c1ccc(/C=C/c2c[nH]c3ccccc23)[n+](C)c1	0	x	x	x	3	-48	0.8	-2	2	-48
CC(C(=O)Nc1ccccc1C(F)(F)F)N1CCN(C)CC1 (stereo not drawn)	-2	3	5	0.9	-9	-4	0.7	1	-1	1.0
Cc1cc(NCc2ccco2)nc2cc(O)ccc12	2	4	12	-2.3	-27	1	0.2	-1	1	-3.1

A portion of the library; rates above refer to the full screens.
